# Lassa entry inh = inhibitors of Lassa virus binding or cell entry; Lassa virus pseudotype entry inhibition, cell reporter; control for the full effect not named in the record; Potency, µM (highest dose often 37.9 µM), without a hit: at the top dose activity change, negative = inhibition, hits mostly inhibitors; 1.2% of 300,000 active; active means well fitted inhibition curve with a large enough effect; inconclusive means small, poorly fitted or top-dose-only effect, or effect the other way; inactive means flat fitted curve, though single readings scatter; tested in HEK293 cells; further: on the % scale 0 is the no-effect control and ±100 the full control effect; nearly all actives have a fitted effect of over 50% in size; luciferase read-out
# Cruzain inh Det = cruzain (T. cruzi) inhibition with detergent. Potency, µM, for the others: max response, negative = inhibition, usual class: inhibitors. purified cruzain, Z-FR-AMC fluorescence, 0.01% Triton. P25779. 0.43% of 200,000 active;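 further: plate controls were neutral wells for no effect and buffer without enzyme for full effect; nearly all actives have a fitted effect of over 40% in size; top concentration of the series not given in the record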
# Target sequence (P25779 123-467 limits assumed): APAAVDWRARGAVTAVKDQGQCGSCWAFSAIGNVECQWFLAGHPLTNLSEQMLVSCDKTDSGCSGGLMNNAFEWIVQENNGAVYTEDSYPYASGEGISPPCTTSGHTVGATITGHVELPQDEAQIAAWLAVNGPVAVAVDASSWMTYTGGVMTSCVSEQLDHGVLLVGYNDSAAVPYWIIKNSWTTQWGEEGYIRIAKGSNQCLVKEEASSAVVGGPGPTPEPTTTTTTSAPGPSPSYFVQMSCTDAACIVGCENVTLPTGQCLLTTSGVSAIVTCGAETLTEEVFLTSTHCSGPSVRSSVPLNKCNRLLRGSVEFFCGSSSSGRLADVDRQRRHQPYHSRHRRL
#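 Z-FR-AMC hydrolysis (2 uM substrate) by cruzain (1.5 nM) monitored kinetically at ex 360/em 450 nm after 15 min room-temperature compound exposure; 0.01% Triton X-100, pH 5.5, 5 mM DTT.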
# RE007 growth inh = less growth of the S. pombe RE007 Vpr strain; S. pombe RE007 Vpr strain, BacTiter-Glo ATP luminescence, 24 h; control for the full effect not named in the record; Potency, µM (series often up to 92.2 µM), without a hit: top-dose activity change, negative = less growth; 0.21% of 360,000 active; active = well fitted falling curve with a large enough effect; inconclusive = small, poorly fitted or top-dose-only effect; inactive = no such curve, though single readings can be large or run the other way;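 further: on the % scale 0 is the no-effect control and ±100 the full control effect; nearly all actives have a fitted effect of over 50% in size; the assay follows cell death caused by Vpr and the record does not say whether a fall means rescue or toxicity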
#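 Fission yeast RE007 carrying one integrated HIV-1 vpr copy, seeded at OD 0.01 in PMG+AL medium with 23 nL pinned compound. Grown 24 h at 30 degrees; viability read by BacTiter-Glo luminescence after 5 min.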
# NS1 function inh = blocks influenza NS1 protein function | S. cerevisiae slowed by influenza A NS1, growth recovery by OD600 | 0.4% of 270,000 active | Potency, µM (top dose mostly 46.1 µM), without a hit: top-dose activity, positive = more growth; active means well fitted rising curve with a large enough effect; inconclusive means small, poorly fitted or top-dose-only effect; inactive means no such curve, though single readings can be large or run the other way; further: nearly all actives have a fitted effect of over 50% in size
#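 Compounds were scored for reversing the slow growth caused by influenza A NS1 in S. cerevisiae, measured by optical density at 600 nm. Assay medium contained 2% galactose at pH 6.0; NS1-free yeast of the same strain were the positive control.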
# SARS PLP yeast = inhibitors of SARS-CoV papain-like protease in yeast; S. cerevisiae expressing SARS-CoV PLpro, growth rescue; control for the full effect not named in the record; 0.19% of 330,000 active; Potency, µM (top dose mostly 32.9 µM), for inactives: at the top dose activity, positive = growth rescue; active means well fitted rising curve with a large enough effect; inconclusive means small, poorly fitted or top-dose-only effect; inactive means no such curve, though single readings can be large or run the other way; further: 0% is about no effect; nearly all actives have a fitted effect of over 55% in size; growth read by luminescence after 48 h
# Cruzain inh noDet = blocks cruzain activity in detergent-free assay | Potency, µM, for the others: max response, negative = inhibition, most hits filed as inhibitors | 2.3% of 200,000 active | AID 1476 | purified cruzain, Z-FR-AMC fluorescence, no detergent;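 further: plate controls were enzyme without inhibitor for no effect and buffer without enzyme for full effect; nearly all actives have a fitted effect of over 40% in size; top concentration of the series not given in the record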
#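 Purified cruzain at 1.5 nM, pre-incubated 15 min with compound at room temperature in 100 mM sodium acetate pH 5.5, 5 mM DTT, 0.00005% Triton X-100. Reaction started with 2 uM Z-FR-AMC; AMC fluorescence increase over 60 s gives rate.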
# 2A StopGo = lowers the luciferase signal of an FMDV 2A StopGo reporter; human cells with a luciferase reporter of 2A StopGo recoding; control for the full effect not named in the record; Potency, µM (top dose mostly 57.9 µM), inactives show at the highest dose signal change, negative = less light; 1.2% of 410,000 active; active = well fitted falling curve with a large enough effect; inconclusive = small, poorly fitted or top-dose-only effect; inactive = no such curve, though single readings can be large or run the other way; tested in HEK293T cells; further: on the % scale 0 is the no-effect control and ±100 the full control effect; nearly all actives have a fitted effect of over 45% in size; luciferase light after 4 h
# MARV entry inh = Marburg virus entry inhibition | 1.8% of 300,000 active | AID 540276 | Marburg virus pseudotyped entry inhibition, cell reporter; control for the full effect not named in the record; about a third of the inactives were read at about 46 µM | Potency, µM (doses to about 37.8 µM), inactives show top-dose activity change, negative = inhibition, most hits filed as inhibitors; active = well fitted inhibition curve with a large enough effect; inconclusive = small, poorly fitted or top-dose-only effect, or effect the other way; inactive = flat fitted curve, though single readings scatter; tested in HEK293 cells; about a fifth of its hits are not listed in these tables; further: on the % scale 0 is the no-effect control and ±100 the full control effect; luciferase read-out
# * hit, by the source's call; ? = inconclusive; · = not tested or not shown; & = joins results of further samples; [ ] = another dose, or the depositor's remark. Unless noted, the call rests on the fitted dose curve; in most records, active means well fitted curve in the direction sought with a large enough effect; inconclusive means small, poorly fitted or top-dose-only effect, or another doubt; inactive means no such curve, though single readings can be large; an effect the other way counts as inactive or inconclusive. Potency means the concentration at half of the fitted maximal effect.
SMILES,Lassa entry inh,Cruzain inh Det,RE007 growth inh,NS1 function inh,SARS PLP yeast,Cruzain inh noDet,2A StopGo,MARV entry inh
Cc1ccccc1CN1C(=O)c2ccccc2Sc2ccc(C(=O)NC(C)c3ccccc3)cc21 (stereo not drawn),-11%[46.1 µM],1.3%,·,·,·,?,-8%,·
O=C(NCCc1ccc(Cl)cc1)c1ccc(CS(=O)(=O)Cc2ccccc2F)o1,?,-5.2%,·,·,·,-10%,40µM*,·
COc1cccc(NC(=O)N2CCN(c3cccc(C)c3C)CC2)c1,7%,-3.2%,29%,-68%,-27%,1%,-12%,-16%
Nc1ncnc2c1ncn2C1OC(CO)C(O)C1N (stereo not drawn),·,·,4%,2%,0%,·,0%,·
NS(=O)(=O)c1ccc(NC(=O)CN2CCN(S(=O)(=O)c3cccs3)CC2)cc1,-27%,·,8%,·,1%,·,-17%,2%
CCc1nc2ccccc2n1Cc1ccc(OC)c(OC)c1,0%,-0.1%,4%,-4%,-1%,-2%,-29%,-23%
Cc1ccc(-n2c(/C=C/c3cccc4ccccc34)nc3ccccc3c2=O)cc1,-5%[46.1 µM],0.7%,·,·,·,-9%,-9%,·
COc1ccc(C)cc1NC(=O)CSc1nnc(-c2ccccn2)n1Cc1ccco1,-1%,-6.8%,3%,-12%,-1%,19%,-23%,-26%
Cc1nc2cccnc2n1C1CCN(C(=O)Nc2ccccc2C(F)(F)F)CC1,-5%[46.1 µM],1.8%,·,·,·,6%,-27%,·
COCCN(C(=O)c1cc(OC)c(OC)c(OC)c1)c1c(N)n(Cc2ccccc2)c(=O)[nH]c1=O,18%,·,-6%,·,0%,·,-7%,7%[14.2 µM]
CC1CCN(CC(=O)Nc2ccc(Cl)cc2[N+](=O)[O-])CC1,1%,·,4%,·,0%,·,0%,19%[46.1 µM]
CCOc1nc(NCCc2ccc(OC)c(OC)c2)nc(NC(C)(C)CO)n1,-25%,-2.3%,15%,3%,2%,1%,-23%,-12%
Cc1cc(NC(=O)CSc2nc3c(c(=O)n2C)SCC3)no1,-6%,·,-6%,3%,17%,·,-25%,0%
CCc1ccc(CN(Cc2ccco2)C(=O)COc2ccc(Cl)cc2C)cc1,?,-4.9%,·,·,·,?,-27%,4%[46.1 µM]
O=C(CSc1nnc(C2COc3ccccc3O2)o1)Nc1nccs1 (stereo not drawn),0%,0.4%,10%,14%,5%,-8%,9%,?
O=C(/C=C/c1ccco1)OCc1nnc(-c2ccc(Cl)cc2)o1,-2%,·,-1%,·,-2%,·,19%,-1%[46.1 µM]
Cc1ccc(CNC(=O)c2ccc(Cl)c(S(N)(=O)=O)c2)n1C,7%,·,-17%,9%,0%,·,-7%,?
CCOC(=O)NC(=O)CSc1ccccn1,-9%,2.0%,-11%,3%,2%,1%,·,14%
CCCCN(C(=O)c1ccc(S(=O)(=O)N(C)C)cc1)c1nc2ccccc2s1,6%,-5.2%,10%,10%,-4%,8%,0%,8%
O=C(NNc1ccccc1[N+](=O)[O-])Nc1ccccc1,-18%,-1.4%,-3%,5%,-2%,-11%,4%,4%
Cc1cc(NC(=O)CSc2nc(C(C)C)nc3sc4c(c23)CCCC4)no1,?,8.5%,2%,5%,3%,?,·,?
O=C(NCC(=O)c1ccccc1)OCc1ccc([N+](=O)[O-])cc1,0%[46.1 µM],·,-22%,10%,2%,·,19%,?
O=C(NCc1ccc(F)c(F)c1)C1CCC(=O)N(CC2CCCCC2)C1 (stereo not drawn),19%,·,2%,10%,-2%,·,1%,0%
O=C(CSCc1ccc(F)cc1)N1CCN(c2ccc(F)cc2)CC1,-4%,-3.0%,6%,-16%,-1%,-1%,?,12%
CC1(C(=O)N(CC(=O)NC2CCCC2)Cc2ccccc2)CC(=O)N=C2C=CC=CN21 (stereo not drawn),4%,·,-20%,-6%,3%,·,10%,11%[46.1 µM]

# The last 2 compounds of the part before come first, to join the parts:
SMILES,Lassa entry inh,Cruzain inh Det,RE007 growth inh,NS1 function inh,SARS PLP yeast,Cruzain inh noDet,2A StopGo,MARV entry inh
O=C(CSCc1ccc(F)cc1)N1CCN(c2ccc(F)cc2)CC1,-4%,-3.0%,6%,-16%,-1%,-1%,?,12%
CC1(C(=O)N(CC(=O)NC2CCCC2)Cc2ccccc2)CC(=O)N=C2C=CC=CN21 (stereo not drawn),4%,·,-20%,-6%,3%,·,10%,11%[46.1 µM]
COc1ccc(OC)c2[nH]c(=O)c(CCNC(=O)C(C)C)cc12,·,-5.5%,3%,-6%,4%,-1%,-22%,·
O=S(=O)(Nc1cccc(-c2ccc(N3CCCCCC3)nn2)c1)c1ccccc1Cl,·,·,12%,12%,0%,·,7%,·
O=C1CCc2cc(NS(=O)(=O)c3ccc([N+](=O)[O-])cc3)cc3c2N1CCC3,-5%,·,1%,·,-3%,·,26%,-5%
CCCC(=O)Nc1cc(OC)c(C(=O)OC)cc1Cl,0%,·,-1%,-4%,10%,·,7%,16%[46.1 µM]
COC(=O)c1cccnc1-n1c(=O)c2cccnc2n(CC(=O)Nc2ccccc2F)c1=O,1%[46.1 µM],0.5%,·,·,·,-1%,1%,0%[46.1 µM]
COc1cccc(NC(=O)c2ocnc2C)c1,20%,2.5%,6%,-12%,-7%,-10%,28%,4%
O=C(CCc1nc2ccccc2[nH]1)Nc1ccc(F)cc1,9%,-3.3%,-10%,-3%,0%,-8%,-10%,-1%
Cc1ccc2nsnc2c1S(=O)(=O)N1CCN(C(=O)C2CCCO2)CC1 (stereo not drawn),-1%,-1.9%,5%,6%,1%,-8%,8%,26%
CC(C)C(=O)NCCc1nc2ccccc2n1CCc1ccccc1,-29%,·,4%,-1%,-1%,·,3%,?
CCOCCc1nnc(NC(=O)CCc2ccccc2)s1,·,·,2%,1%,-1%,·,-8%,·
Cc1cc2n(n1)SC(Nc1ccc(F)cc1)N2 (stereo not drawn),?,-1.6%,8%,-2%,-34%,-5%,34%[activator],?
CC1CC2=C(NC(=S)NC2c2cccc(F)c2)/C(=C/c2cccc(F)c2)C1 (stereo not drawn),·,·,3%,·,1%,·,?,?
CCN(CC)C(=O)C[n+]1cccc(C(N)=O)c1,-16%,-3.0%,2%,9%,13%,3%,13%,-14%[46.1 µM]
Cc1ccccc1OCC(=O)NCCCNC(=O)c1cccnc1,-15%,·,-9%,2%,-3%,·,5%,4%[46.1 µM]
O=C(CCNc1ccc(Cl)c(C(F)(F)F)c1)c1ccco1,-4%,-8.1%,-50%,-44%,-8%,-14%,-27%,10%
O=C(N=Nc1c(O)n(Cc2ccccc2)c2ccccc12)c1ccc(O)cc1,?,-2.7%,·,25%,-22%,?,-1%,?
CC(C)(C)C1(C)OC(C(N)=O)C(C(N)=O)O1 (stereo not drawn),-19%,1.5%,7%,7%,10%,3%,-17%,6%[46.1 µM]
Clc1ccccc1-c1nc2ccccc2[nH]1,?,·,?,-6%,-5%,·,22%,?
O=C(Cc1cccs1)N1CCC(c2nc3c(nnn3Cc3ccccc3Cl)c(=O)[nH]2)CC1,?,-3.0%,8%,0%,3%,?,?,3%&5%
CC(=O)c1cccc(Nc2ncnc3ccc(Br)cc23)c1,?,·,-9%,-34%,-3%,·,?,?
O=C(CSc1ccc(/C=N/NC(=O)c2cccc(F)c2)o1)Nc1ccccc1,13%,-6.1%,-14%,7%,4%,-6%,·,-2%
O=C(O)Cc1ccc2oc(-c3ccccn3)nc2c1,·,·,-4%,11%,0%,·,33%[activator],·
CC(=O)NC(Cc1ccccc1F)C(=O)NC1CCN(C(=O)NCc2ccccc2)CC1 (stereo not drawn),21%[46.1 µM],·,7%,0%,-1%,·,57%[activator],-6%[46.1 µM]
c1ccc(-c2ccc(C(c3ccccc3)n3ccnc3)cc2)cc1 (stereo not drawn),-27%,4.7%&-4.0%,-7%,-85%,-67%&-26%,4%&-13%,-24%&-14%,-56%&-56%&-56%&-56%&-56%&-56%&-56%
CC(C)CC(=O)Nc1ccc(-c2nc3ccccc3c(=O)[nH]2)cc1,?,-4.0%,-14%,3%,2%,?,-11%,?
# Additional structures
SMILES,Lassa entry inh,Cruzain inh Det,RE007 growth inh,NS1 function inh,SARS PLP yeast,Cruzain inh noDet,2A StopGo,MARV entry inh
COc1ccccc1NC(=S)N(C(C)C)C(C)c1ccccn1 (stereo not drawn),12%,·,2%,·,-6%,·,20%,?
COC(=O)[C@]1(C)C[C@H]1[C@H](NP(=O)(c1ccccc1)c1ccccc1)c1ccccc1,?,-0.5%&2.8%,3%,-19%,1%,?,-9%,-2%
CCCOc1ccc(S(=O)(=O)n2cc(F)c(=O)[nH]c2=O)cc1,-11%[46.1 µM],·,-29%,-41%,-9%,·,-12%,-3%[46.1 µM]
O=C(O)c1cc(Br)ccn1,29%,·,-10%,·,-1%,·,-4%,3%[46.1 µM]
COc1ccc(CCNS(=O)(=O)c2cc(/C=C/C(=O)O)ccc2C)cc1OC,4%[46.1 µM],·,38%,-2%,-1%,·,-5%,0%[46.1 µM]
Cc1cccn2c(=O)c(C(=O)NCCc3ccc(S(N)(=O)=O)cc3)c(O)nc12,·,-14%,·,·,·,-14%,-27%,10%[46.1 µM]
Cc1nc2nncn2c(N2CCN(c3ccccc3)CC2)c1C,-4%[46.1 µM],-1.9%,·,·,·,2%,-11%,4%[46.1 µM]
Cc1nn(CC(=O)NCc2ccccc2Cl)c(=O)c2cccn12,3%[46.1 µM],-9.2%,·,·,·,0%,9%,-14%[46.1 µM]
CN(C)c1nc(N)nc(-c2cccnc2)n1,14%,0.7%,-1%,-3%,14%,4%,-14%,22%[46.1 µM]
COc1ccc(CNC(=S)Nc2cccc(C)c2)cc1,16%,-2.3%,5%,2%,29%,8%,29%,?
COc1ccccc1CNC(=O)COC(=O)C1CCN(c2ccc(C(F)(F)F)cn2)CC1,3%,·,5%,·,-8%,·,7%,14%
S=C1SCN(Cc2cccnc2)CN1Cc1ccccc1,0%,·,-8%,·,-9%,·,-15%,?
COc1ccccc1N1CCN(C(=O)C(C)NC(=O)c2ccco2)CC1 (stereo not drawn),-9%,·,-5%,·,-3%,·,-5%,29%
CCOc1ccc(CC(=O)C2=C(N3CCOCC3)CC(C)(C)CC2=O)cc1OCC,-5%,·,10%,·,-1%,·,-6%,23%[46.1 µM]
